KCNQ2 enhance = potentiators of rat KCNQ2 potassium channel; CHO-K1 KCNQ2, FluxOR thallium flux fluorescence; hits give high values; Potassium voltage-gated channel subfamily KQT member 2 (Rattus norvegicus), O88943; B-score at 10 µM; hit rate 0.54% among 310,000; AID 2239, 2010;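 active means fluorescence ratio B-score at least 3 SD of library B-scores, with initial fluorescence B-score within 3 SD, cut at about 5.3 in these data; same plate scores as AID 2156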;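 further: B-score of peak minus minimum over baseline fluorescence ratio after K+ and Tl+ stimulus; positive B-score means potentiation of KCNQ2 with more thallium influx and brighter signal; only the inactives scoring about 0 or higher are listed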
Target sequence (O88943 whole entry, looked up): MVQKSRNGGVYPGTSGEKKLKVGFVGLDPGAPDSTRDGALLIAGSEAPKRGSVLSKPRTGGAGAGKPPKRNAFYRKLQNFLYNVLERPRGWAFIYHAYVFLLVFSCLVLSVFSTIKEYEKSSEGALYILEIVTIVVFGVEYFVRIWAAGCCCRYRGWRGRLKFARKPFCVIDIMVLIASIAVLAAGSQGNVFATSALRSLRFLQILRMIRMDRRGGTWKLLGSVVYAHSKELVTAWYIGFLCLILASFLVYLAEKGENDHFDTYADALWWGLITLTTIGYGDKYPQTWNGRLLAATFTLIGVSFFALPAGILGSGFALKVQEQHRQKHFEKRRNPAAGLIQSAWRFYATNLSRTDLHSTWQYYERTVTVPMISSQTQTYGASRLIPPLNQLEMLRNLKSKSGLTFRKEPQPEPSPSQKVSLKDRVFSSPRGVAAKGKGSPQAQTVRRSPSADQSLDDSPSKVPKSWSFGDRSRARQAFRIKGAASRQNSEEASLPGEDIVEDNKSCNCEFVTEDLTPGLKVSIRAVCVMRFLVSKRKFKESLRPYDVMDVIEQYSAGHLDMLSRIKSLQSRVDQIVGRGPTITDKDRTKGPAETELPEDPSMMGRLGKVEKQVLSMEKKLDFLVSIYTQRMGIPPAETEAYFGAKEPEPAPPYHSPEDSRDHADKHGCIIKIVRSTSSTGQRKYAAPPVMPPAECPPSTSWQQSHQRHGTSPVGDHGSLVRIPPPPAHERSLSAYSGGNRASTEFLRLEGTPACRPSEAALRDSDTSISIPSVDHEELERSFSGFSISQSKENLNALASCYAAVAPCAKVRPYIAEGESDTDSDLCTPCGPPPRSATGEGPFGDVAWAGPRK
KCNQ2 enhance baseline = further read-out of KCNQ2 enhance, marked with its call; B-score; compound at 10 µM; measured here: initial fluorescence intensity artifact check;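 brightness before thallium and not channel activity; 0 = typical well and far values either way flag optical interference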
Numbers without * were called inactive.

SMILES	KCNQ2 enhance	KCNQ2 enhance baseline
COc1cc(Cn2ccnc2)c(OC)cc1Cn1ccnc1	0.63	-0.15
COc1ccc(OC)c(C2c3[nH]c4ccccc4c3C[C@H]3C(=O)N(CCCOC(C)C)CC(=O)N23)c1 (some centres not stated)	0.06	0.75
CCOC(=O)Cc1csc(NC(=O)CSc2nnc(-c3ccc(C)cc3)o2)n1	0.04	2.5
CC(C)(C)OC(=O)NCCCC1=CC2=CC(=O)C(C)(OC(=O)c3ccco3)C(=O)C2=CO1 (configuration not stated)	0.18	-2
CCNC(=S)NNC(=O)c1cccs1	0.08	-0.58
CCOC(=O)Cc1cc(=O)n2[nH]c(-c3ccc(C)cc3)cc2n1	0.62	0.05
CC(=O)c1c(C)[nH]c(C(=O)OCC(=O)NCCC2=CCCCC2)c1C	1.1	-0.56
O=C(CN1C(=O)NC2(CCCC2)C1=O)Nc1nc2c(F)cc(F)cc2s1	0.54	-0.45
O=C(NCC1CCCO1)/C(=C/c1cn(-c2ccccc2)nc1-c1cccnc1)NC(=O)c1ccccc1 (configuration not stated)	0.05	-1.2
COc1cccc(C(=O)Nc2ccc(Oc3cccc(C(F)(F)F)c3)nc2)c1	0.79	0.56
OCCNC(=S)Nc1ccc(Oc2ccccc2)cc1	1.3	0.41
COC(=O)c1c(NC(=O)c2ccnn2C)sc(C)c1C	0.68	0.97
Nc1nc(NCCCN2CCOCC2)nc(Nc2cccc(Cl)c2)c1[N+](=O)[O-]	0.6	-0.3
Cc1cccc(S(=O)(=O)Nc2nc3ccccc3nc2NCc2ccco2)c1	0.07	0.03
COC(=O)N/N=C/c1sc(N2CCCCC2)nc1-c1cccs1	0.56	-1.1

Grouped by structure: the entries above containing fluorine
SMILES	KCNQ2 enhance	KCNQ2 enhance baseline
O=C(CN1C(=O)NC2(CCCC2)C1=O)Nc1nc2c(F)cc(F)cc2s1	0.54	-0.45
COc1cccc(C(=O)Nc2ccc(Oc3cccc(C(F)(F)F)c3)nc2)c1	0.79	0.56

Further results follow.
SMILES	KCNQ2 enhance	KCNQ2 enhance baseline
CC(=O)Nc1ccc(NC(=O)CN2CCN(c3ccccn3)CC2)cc1	0.54	0.01
CC(OC(=O)CCc1nc2ccccc2c(=O)[nH]1)C(=O)NCc1ccc2c(c1)OCO2 (configuration not stated)	1.4	-2
COc1ccc(OC)c(-c2csc(NC(=O)CSc3nnnn3C)n2)c1	0.74	1.3
Cc1oncc1C(=O)NC(C)C	1.1	-0.28
OC1(c2nc3ccccc3[nH]2)CCCCC1	0.12	0.06
CCc1nnc(NC(=O)CCS(=O)(=O)Cc2ccccc2)s1	1.3	-1
COc1cccc(C(=O)NNC2=CC(=O)CC(C)(C)C2)c1	0.76	-1.5
O=C(O)c1ccc(N2CCCC2=O)cc1	0.14	-0.49
NC(=O)Nn1c(CCC(=O)O)ccc1-c1ccc(Cl)cc1	0.02	0.17
Cc1ccc(NCc2nnc(SCC#N)o2)c(C)c1	0.18	0.86
CCC(CC)C(=O)Nc1nnc(S(=O)(=O)N2CCCCCC2)s1	0.92	-0.47
Cc1cccc(CSC2=NCCN2C(=O)c2ccco2)c1	0.44	-1
CN1CCN(NC(=O)CN2C(=O)/C(=C/c3ccccc3Cl)SC2=S)CC1	1.5	0.21
O=C1CCC/C1=C/Nc1ccc(Cl)cc1	0.91	-0.26
CCN(CC)CCNCc1ccc(-c2ccc(Cl)cc2)o1	0.72	-1.4
O=C(NCCc1ccc(F)cc1)c1ccc([N+](=O)[O-])cc1	0.48	-0.12
CC1(C)Cc2nc3sc4c(OCc5ccccc5)ncnc4c3cc2CO1	0.39	0.16
CC(=O)c1sc(-c2ccc(F)cc2F)nc1C	2.4	-0.33
CC1=C(C(=O)OC2CCCCC2)C(c2ccc(C)o2)C2=C(CCCC2=O)N1 (configuration not stated)	0.63	0
COc1ccc(CSC(=N)N)cc1[N+](=O)[O-]	0.48	-1.3
CCOc1ccc(NC(N)=O)cc1	1	1.1
O=C(CSc1nnnn1C1CCCCC1)NCc1ccco1	0.44	0.31
CNC(=S)N(Cc1cccs1)Cc1cc2cc(OC)ccc2[nH]c1=O	0.05	-1.2
Cc1cccc(OCC(=O)O/N=C(\N)c2ccccn2)c1	0.17	0.68
C/C(=N\NC(=O)c1ccccc1-n1cccc1)C1CC1	0.84	0.2
COc1cccc(CNC(=O)C2CCN(S(=O)(=O)N3CCC(C)CC3)CC2)c1	2.6	-3
O=C(N/N=C/c1coc2ccccc2c1=O)c1ccncc1	0.75	-2.5
O=C(CC1S/C(=N/N=C/C=C/c2ccccc2)NC1=O)Nc1ccc(Cl)c(Cl)c1 (configuration not stated)	0.09	-0.13
COC(=O)c1c(C)oc2ccc(N(C(C)=O)S(=O)(=O)c3ccccc3)cc12	0.11	-0.1
COc1ccc(OC)c(S(=O)(=O)Nc2ccc3c(c2)C(=O)OC3)c1	1.1	-0.19

Quoted at random: three compounds from above.
SMILES	KCNQ2 enhance	KCNQ2 enhance baseline
COC(=O)c1c(C)oc2ccc(N(C(C)=O)S(=O)(=O)c3ccccc3)cc12	0.11	-0.1
COc1cccc(CNC(=O)C2CCN(S(=O)(=O)N3CCC(C)CC3)CC2)c1	2.6	-3
Cc1cccc(OCC(=O)O/N=C(\N)c2ccccn2)c1	0.17	0.68

(next part)
SMILES	KCNQ2 enhance	KCNQ2 enhance baseline
COc1ccc(N(Cc2ccco2)C(=O)c2ccccc2F)cc1OC	0.52	0.3
O=C(CSc1nncn1-c1ccccc1)Nc1ccc(F)cc1F	1.2	1.1
CC(C)CNC(=S)N(CCCO)Cc1cc2cc3c(cc2[nH]c1=O)OCCO3	1.3	-0.79
CCCn1nnnc1NCc1c(F)cccc1Cl	0.04	0.49
COCc1nnc(NC(=O)C(C)C)s1	0.2	0.73
Cc1ccc(CCNC(=O)C2CC(c3ccc(C(F)(F)F)cc3)=NO2)cc1 (configuration not stated)	0.81	-1.4
Cc1cccc(N=Nc2c(C)c(C#N)c(O)[nH]c2=O)c1	1.6	1.4
Cc1cc(/C=C(\C#N)C(=O)O)c(C)n1CCC(C)C	0.35	-3.3
O=S(=O)(c1ccccc1)N1C2CCC1CC(O)(c1cccnc1)C2 (configuration not stated)	0.02	0.62
CC(=O)Nc1cccc(NC(C)=C(C#N)C#N)c1	0.62	-1.4
O=C(NCC(=O)N(Cc1ccccc1)C(C(=O)NC1CCCC1)c1cccnc1)c1ccco1 (configuration not stated)	0.42	1.1
Cc1ccn2c(=O)cc(C)nc2c1	1.4	-1.2
CN(C)c1oc(-c2ccccc2)nc1C#N	1.1	-0.22
Cc1ccc(NC(=O)CCNC(=O)c2ccc([N+](=O)[O-])cc2)cc1C	1.6	0.56
O=C(Nc1ccc(C(=O)N2CCOCC2)cc1)c1cc(-c2cccnc2)nc2ccc(Br)cc12	1.3	-0.03
C=C(C)Cc1c(C)c(C#N)c2nc3ccccc3n2c1NCCCN(C)C	1.4	-2.6
O=C(CSc1nccc(-c2cccs2)n1)Nc1cccc(Cl)c1	2.6	1.3
CC(=O)Nc1ccc(NC(=O)CSc2ccc3nnc(CCNC(=O)c4ccccc4)n3n2)cc1	1.3	-0.98
CCN(CC)Cc1c(C(=O)OC)nnn1-c1nonc1N	0.33	-0.97
O=C(Cn1ncc2c(=O)oc3ccccc3c21)N1CCCN(Cc2ccccc2F)C1	2.6	-2.8
Cc1cc(C)n2cc(CSc3nnc(-c4ccccc4)o3)nc2n1	0.89	0.1
Cc1nn(C)c(=O)n1-c1ccccc1	0.29	0.03
COc1ccc2[nH]c(C(=O)O)c(CCC(=O)O)c2c1	1.4	0.22
O=C(CN1CCN(C(=O)c2cccc(F)c2)CC1)Nc1ccccc1F	0.04	1
Cc1ccc(Nc2ncc3c(n2)CC(c2ccco2)CC3=O)c(C)c1 (configuration not stated)	0.11	0.12
COc1cc2c(cc1OC)C(c1ccc(Cl)cc1)CC(=O)N2 (configuration not stated)	0.29	-1.1
O=C(CCn1c(=O)oc2ccccc21)NCCC1=CCCCC1	0.04	-0.28
O=C(CSc1nnc(CNC(=O)c2cccs2)o1)Nc1ccc(Cl)cc1	1.8	0.31
O=C1c2ccccc2-c2ccc(C(=O)N3CCCCC3)cc21	0.35	1.2
CC(C)=CCCC1=CCC(/C(C)=N/NC(N)=O)CC1 (configuration not stated)	3	1.2
CCc1ccc(C(=O)CN2CCSC2=N)cc1	0.79	0.48
CCn1c(CC(=O)Nc2ccc(F)cc2)nnc1SCC(=O)Nc1nncs1	0.1	0.22
O=c1[nH]cnc2scc(C3COc4ccccc4O3)c12 (configuration not stated)	0.88	1.7
COc1cc(NC(C)=O)ccc1NC(=O)c1cc2ccccc2o1	0.87	-0.69
CSc1ccccc1-n1nnnc1SCC(=O)NCc1cccs1	0.87	-0.25
Cc1nc(-c2ccc(Cl)cc2)sc1C(=O)NN	0.24	-0.17
CC(C)(C)NCc1cccn1-c1sc2c(c1C#N)CCCC2	0.78	-0.81
O=C(COC(=O)C1CC(=O)N(c2ccccc2)C1)c1ccccc1 (configuration not stated)	2.2	-0.24
COc1ccc(/C=C(/NC(=O)c2ccc(C)cc2)c2nc3ccccc3[nH]2)cc1OC	0.62	-1.5
Cc1ccc(C(=O)Nc2cccc(-c3ccc(N4CCOCC4)nn3)c2)cc1C	0.14	-1.1
CC(=O)NC(Cc1c[nH]c2ccccc12)C(=O)N/N=C/c1ccccc1 (configuration not stated)	0.8	1.5
COC(=O)c1cc(C(=O)N(Cc2ccccc2)c2ccccn2)cc([N+](=O)[O-])c1	0.24	-0.44
COCCn1c(SCC(=O)Nc2cc(C)on2)nnc1-c1ccccc1	1.5	2.3
O=C(Nc1ccccc1Cl)Oc1ccc(Cl)cc1Cl	1.2	2.1
COc1cccc(/C=N/NC(=O)CN2C(=O)NC3NC(=O)NC32)c1 (configuration not stated)	0.62	0.02

Three of the compounds above, in CSV form:
canonical_smiles,KCNQ2 enhance,KCNQ2 enhance baseline
COc1cccc(/C=N/NC(=O)CN2C(=O)NC3NC(=O)NC32)c1 (configuration not stated),0.62,0.02
CSc1ccccc1-n1nnnc1SCC(=O)NCc1cccs1,0.87,-0.25
COc1ccc(/C=C(/NC(=O)c2ccc(C)cc2)c2nc3ccccc3[nH]2)cc1OC,0.62,-1.5

Carrying on:
SMILES	KCNQ2 enhance	KCNQ2 enhance baseline
Cc1cccc(C)c1NC(=O)Nc1ccc(S(N)(=O)=O)cc1	0.07	-0.27
O=C1C2C3C=CC(O3)C2C(=O)N1CC(O)c1ccccc1 (configuration not stated)	0.03	-1.4
COC(=O)c1ccc(Cc2ccccc2)o1	0.14	2.4
COCc1cc(=O)n2c([nH]c3ccccc32)c1C#N	1.6	-1.7
O=C(COC(=O)c1ccccc1OCC(=O)Nc1ccc(Br)cc1)Nc1ccccc1	2.2	0.9
COc1cc(NC(=O)CCc2ccccc2)c(C(=O)O)cc1OC	0.08	0.17
CCCNS(=O)(=O)c1ccc2c(c1)n(C)c(=O)n2C	1.8	-2.2
N#Cc1ccc(Nc2ccccc2)c(N)c1	0.58	0.51
O=C(CNC(=O)c1ccc(Br)o1)NCc1ccc(F)cc1	0.04	1.4
COc1ccc(Cc2nnc(N/N=C/c3ccc(C)o3)[nH]c2=O)cc1	0.04	1.6
Cc1cccc(C(=O)N2CCCC(N3CCN(c4ccccc4F)CC3)C2)n1 (configuration not stated)	0.44	-0.01
COC(=O)c1c(-c2ccccc2)noc1C	1.1	0.59
Cc1cc(C)nc(NC(=O)c2cccc([N+](=O)[O-])c2)c1	0.83	0.89
COc1cccc(OC)c1Nc1nc(C)nc2c1nnn2Cc1ccccc1Cl	0.05	0
Cc1cccc(N2CCN(C(=O)CCn3c(=O)[nH]c4ccsc4c3=O)CC2C)c1 (configuration not stated)	0.4	-0.07

Structures listed so far with a tert-butyl group (2):
SMILES	KCNQ2 enhance	KCNQ2 enhance baseline
CC(C)(C)OC(=O)NCCCC1=CC2=CC(=O)C(C)(OC(=O)c3ccco3)C(=O)C2=CO1 (configuration not stated)	0.18	-2
CC(C)(C)NCc1cccn1-c1sc2c(c1C#N)CCCC2	0.78	-0.81

(cont.)
SMILES	KCNQ2 enhance	KCNQ2 enhance baseline
O=C(O)CCCCCNCc1c(Cl)cccc1Cl	0.24	0.26
CCCS(=O)(=O)c1cnc(C2COc3ccccc3O2)nc1N (configuration not stated)	0.71	-0.87
O=C(CSc1ncn[nH]1)Nc1ccc(S(=O)(=O)N2CCCC2)cc1	0.28	3.8
CC(C(=O)Nc1ccc2c(c1)OCCO2)c1ccc([N+](=O)[O-])cc1 (configuration not stated)	0.3	-0.61
C=C(C)CNC(=S)NNC(=O)CCn1c2cc(Cl)ccc2c2ccc(Cl)cc21	0.05	1.2
CCC1(CC)NC(=O)N(CC(=O)OCC(=O)Nc2ccc(C(F)(F)F)cc2)C1=O	0.1	-0.44
CN(C1CC(C)(C)N(O)C(C)(C)C1)S(=O)(=O)CC12CCC(CC1=O)C2(C)C (configuration not stated)	0.04	-0.16
CCN(CC)S(=O)(=O)c1cccc(C(=O)N/N=C2\CC(=O)CC(C)(C)C2)c1	0.04	-0.21
CC(C)(CN1CCN(Cc2ccccc2)CC1)NS(=O)(=O)c1ccccc1	0.86	-0.59
CCOc1cccc(CNCCO)c1OCc1ccc(Cl)cc1Cl	1	0.04
CCN1C(=NCC(C)C)N[C@@H](CCc2ccccc2)[C@H](C(=O)NCC(C)C)[C@H]1C	2.1	-1.1
CC(C)N1C(=O)C2C(C(=O)NC3CCCCC3)C3C=CC2(O3)C1C(=O)NC1CCCCC1 (configuration not stated)	1.2	-0.09
COc1ccc(-c2nnc(SCC(C)C)o2)cc1	0.72	0.61
CCCCCCCCCCCCCCCC(=O)OC[C@H](COP(=O)([O-])OCC[N+](C)(C)C)OC(=O)CCCCCCCCCCCCCCC	0.43	0.01
C=CCOc1nc2c(c(=O)n(C)c(=O)n2C)n1Cc1ccccc1Cl	0.01	0.64
CC1(C)CC2(CCO1)OC(=O)CC2C(=O)NCc1ccccc1 (configuration not stated)	0.01	0.98

The list is partial; count on the stated rates, not on these rows.
